Compound activity as filed in PubChem.
PK Bst = alters activity of Bacillus stearothermophilus pyruvate kinase | partly purified Bacillus stearothermophilus pyruvate kinase, luminescence ATP production; ribose 5-phosphate activator present at AC10 | Potency, µM | actives 1.2% (n = 51,000); in the data active means potency below about 11 µM; inconclusive means mostly about 12 µM to 25 µM; inactive means weaker than that;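 the screen sought inhibitors and activators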;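 further: potency means the concentration at half of the fitted maximal effect; scaled between full activation by ribose 5 phosphate and full inhibition by luteolin; about four in five hits inhibit and the cells do not say which; series up to 57 µM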
TsaE inh = YjeE (TsaE) inhibition, E. coli; purified YjeE, fluorescence polarisation of a bound ADP probe; P0AF67; actives 0.05% (n = 71,000); Potency, µM; active = well fitted falling curve; inconclusive = weaker or top-dose-only fall, or a rising curve; inactive = flat or poorly fitted curve;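 further: top concentration of the series not given in the record; excess ADP was the control for the full effect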
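Fluorescence polarization of a BODIPY Texas Red–ADP probe (2 uM) bound to purified YjeE (10 uM) was read after 15 min room-temperature incubation with compounds. Loss of polarization marks inhibitors; ADP serves as titrated control.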
* = called active by the depositor; i = inactive; ? = inconclusive; / = not tested or not shown; & = joins results of further samples. The list is partial; the hit share may differ from the screen's.

SMILES | PK Bst | TsaE inh
COc1ccc(C2C(CC(=O)O)=C(O)C(=O)N2c2ccccc2)cc1 (stereo not given) | >57 | i
CCOc1ccc(-c2cc(CCCC(=O)NCc3ccco3)no2)cc1 | / | i
CC(C)OC(=O)CSc1nnc(-c2ccc(O)cc2)n1Cc1ccccc1 | / | i
O=C(Cc1ccc(S(=O)(=O)N2CCOCC2)s1)Nc1ccc2c(c1)CCC2 | >57 | i
CC(C)Cc1cc(C(=O)O)n[nH]1 | >57 | i
O=C1CC(c2ccco2)Cc2nc(NCC3CCCO3)ncc21 (stereo not given) | >57 | i
C=CCOc1ccc(C2N3CC4(C)CN2CC(CCC)(C3)C4=O)cc1 (stereo not given) | >57 | i
Cc1cc2c(c(=O)o1)C1(C(=O)N(C)c3ccccc31)C(C#N)=C(N)O2 (stereo not given) | >57 | i
Cc1ccccc1-c1nc(CS(=O)(=O)CC(=O)NCCN2CCOCC2)c(C)o1 | / | i
O=C(c1cc2ccccc2o1)n1nnc2ccccc21 | >57 | i
Cc1sc2nc(SCc3nnc(-c4cccs4)o3)n(C3CCCC3)c(=O)c2c1C | >57 | i
Cc1nc2cnc(Oc3cccc(Cl)c3)nc2n(CCC#N)c1=O | / | i
Cc1ccc(SCc2[nH]nc3c2C(c2cccnc2)C(C#N)=C(N)O3)cc1 (stereo not given) | >57 | i
COc1ccc(/C(O)=C2/C(=O)C(=O)N(CCCN(C)C)C2c2ccc(C)o2)cc1Cl (stereo not given) | >26 | /
O=C(Nc1ccc2c(c1)OCCO2)C1CCCN1S(=O)(=O)c1cccc2cccnc12 (stereo not given) | / | i
Cn1cccc1C(=O)N1CCC[C@@]2(CCN(c3ccncc3)C2)C1 | / | i
COc1ccc(-c2nc(CSCC(=O)N3CCN(C4CCCCC4)CC3)c(C)o2)cc1OC | / | i
COC(=O)c1c(C)oc2ccc(OC(=O)c3cccs3)cc12 | / | i
OC(COCc1ccc(Cl)cc1)CN1CCN(CC(O)COCc2ccc(Cl)cc2)CC1 (stereo not given) | >57 | i
CC(=O)NC1(c2ccccc2)CCN(C(=O)N2CCOCC2)CC1 | >57 | i
COc1ccc(CCC(=O)c2c(O)cc(O[C@@H]3O[C@H](CO)[C@@H](O)[C@H](O)[C@H]3O[C@@H]3O[C@@H](C)[C@H](O)[C@@H](O)[C@H]3O)cc2O)cc1O | / | i
CCN1C(=S)SC(=O)C1=C1C=C(C)N(Cc2ccco2)C(C)=C1 | / | i
CCc1ccccc1N(CC(=O)OC)S(C)(=O)=O | >57 | i
COc1ccc(OC)c2[nH]c(=O)c(CCNS(=O)(=O)c3ccccc3)cc12 | ? | i

Whole records, looked up by structure. Screens in order: PK Bst | TsaE inh
CC(=O)NC1(c2ccccc2)CCN(C(=O)N2CCOCC2)CC1 in the list: >57 | i
COc1ccc(OC)c2[nH]c(=O)c(CCNS(=O)(=O)c3ccccc3)cc12 in the list: ? | i
CCc1ccccc1N(CC(=O)OC)S(C)(=O)=O in the list: >57 | i
Cc1ccc(SCc2[nH]nc3c2C(c2cccnc2)C(C#N)=C(N)O3)cc1 (stereo not given) in the list: >57 | i
COC(=O)c1c(C)oc2ccc(OC(=O)c3cccs3)cc12 in the list: / | i

(listing goes on)
SMILES | PK Bst | TsaE inh
Oc1c(Cl)cc(C(c2cc(Cl)c(O)c(Cl)c2)C(c2cc(Cl)c(O)c(Cl)c2)c2cc(Cl)c(O)c(Cl)c2)cc1Cl | / | i
COc1cccc(OCc2nc3c4cnn(-c5ccccc5)c4ncn3n2)c1 | >57 | i
COc1cccc(-c2nccc(N(C)Cc3ccco3)n2)c1 | / | i
COc1ccccc1CNc1cc(-c2cccnc2)ncn1 | / | i
COc1ccc2c(c1)CCc1c(C(=O)NCCN3CCOCC3)noc1-2 | / | i
CCn1c(SCC(=O)c2ccc3c(c2)OCCO3)nnc1C(C)C | >57 | i
COc1ccc(N2CCN(Cc3nc4c(c(=O)n(C)c(=O)n4C)n3CCc3ccccc3)CC2)cc1 | / | i
O=C(Nc1sc2c(c1C(=O)NCc1ccco1)CCCC2)c1ccc2c(c1)OCO2 | >57 | i
Cc1ccccc1-c1cc(N(C)C)ncn1 | / | i
O=C(NCC1CCCO1)c1ccc(COCC(F)(F)C(F)F)cc1 (stereo not given) | >57 | i
Cc1cc(N)c(NC2=CC(=O)CC(C)(C)C2)cc1C | >57 | i
O=C(CC(c1ccco1)C1CCCCC1=O)c1ccco1 (stereo not given) | >57 | i
Cc1ccc(-c2nnc3sc(-c4ccncc4)nn23)cc1 | i | i
Cc1cc(C(C)(C)C)oc1C(=O)Nc1ccc(CC(=O)O)cc1 | / | i
COc1cc(S(=O)(=O)n2nnc3ccccc32)c(OC)cc1Cl | >57 | i
Cc1ccc(OCc2nnc(NC(=O)Cc3cccs3)s2)cc1 | >57 | i
Cc1c(C(Nc2ccccn2)c2ccccc2)c(=O)n(-c2ccccc2)n1C (stereo not given) | >26 | /
CSc1nc(C)cc(Oc2ccc(=O)n(C)n2)n1 | >57 | i
Cn1c2ccccc2c2c(C(=O)O)cn(C3CCCC3)c(=O)c21 | / | i
CC(C)(C)NC(=O)C(c1ccco1)N(C(=O)c1ccc(CN2CCOCC2)o1)c1ccccc1 (stereo not given) | >57 | i
CCOC(=O)c1c(C)n(C)c2ccc(OC)c(NS(=O)(=O)c3ccc(Cl)s3)c12 | >57 | i
CC(c1ccccc1)N1CC(C(=O)NC2CCCC2)CC1=O (stereo not given) | >57 | i
COc1cc2nc(SCC(N)=O)n(CCC3=CCCCC3)c(=O)c2cc1OC | >57 | i
N#Cc1ccc(CSCC(=O)O)cc1 | / | i
O=c1c2ccccc2sn1-c1cc(S(=O)(=O)N2CCOCC2)ccc1N1CCOCC1 | >57 | ?
CN(C)C(CNC(=O)C1CCCN(C(=O)c2ccc(Cl)cc2)C1)c1ccco1 (stereo not given) | >57 | i
Cc1ccc(/C=c2\sc3nc(-c4ccco4)nn3c2=O)o1 | >57 | i
CCOc1ccccc1N(C(=O)c1snc(C(N)=O)c1N)C(C(=O)NC1CCCC1)c1ccco1 (stereo not given) | >57 | i
COc1ccc(N(CC(=O)NC2CCCC2)C(=O)Cn2nnc(-c3ccc(C)cc3)n2)cc1 | >57 | i
CCCCNC(=O)C1COc2ccccc2O1 (stereo not given) | / | i
Cc1noc(C)c1S(=O)(=O)N1CCC(C(=O)NCCN2CCC(C)CC2)CC1 | >57 | i
CC1CC(C(O)c2ccccn2)C(=O)C(C(O)c2ccccn2)C1 (stereo not given) | >57 | i
CSc1ccccc1NC(=O)c1cc(-c2cccs2)on1 | >57 | i
COc1ccc(N2C(=O)CSC23C(=O)Nc2ccccc23)cc1OC (stereo not given) | >57 | i
COc1ccc(N(C(=O)c2ccco2)C(C(=O)NC2CCCC2)c2ccc(N(C)C)cc2)cc1OC (stereo not given) | >57 | i
COc1ccc(N2CCN(Cc3cc(=O)oc4cc(C)c(Cl)c(C)c34)CC2)cc1 | >57 | i
COc1ccc(C(=O)NC2CCN(C(=O)NC3CCCCC3)CC2)cc1 | >57 | i
CCOC(=O)C1CCN(C(=O)CC(NS(=O)(=O)c2ccc(OC)cc2)C(C)C)CC1 (stereo not given) | >57 | i
CCN(CC)C(=O)C(C)N(C#N)c1nc(NC(C)C)nc(NC(C)C)n1 (stereo not given) | / | i
CC(C)(C)c1[nH]nc2c1C(Cc1ccccc1)C(C#N)=C(N)O2 (stereo not given) | >57 | i
COc1ccc(C(=O)N2CCCCC2)cc1S(=O)(=O)Nc1ccccc1 | >57 | i
CCCn1nc(C(=O)NCCN2CCOCC2)c2ccccc2c1=O | >57 | i
Cc1ccc(S(=O)(=O)NC2=NCN(CCN3CCOCC3)CN2)cc1 | >57 | i
CCCC1C2CN(C(C)C)CC=C2C(C#N)=C(N)C1(C#N)C#N (stereo not given) | >57 | ?
CCn1c(-c2cc(OC)c(OC)c(OC)c2)n[nH]c1=S | >57 | i
CC(=O)OCC(=O)[C@@]1(OC(C)=O)[C@H](C)C[C@H]2[C@@H]3C[C@H](F)C4=CC(=O)C=C[C@@]4(C)[C@]3(F)[C@H](O)C[C@@]21C | / | i
CCCC(=O)Nc1nn(C)c2nc3cc(C)ccc3cc12 | >57 | i
O=c1c(N2CCOCC2)nsnc1N1CCOCC1 | / | i
CCCn1c(=O)c2ccccc2n2c(SCN3C(=O)c4ccccc4C3=O)nnc12 | >57 | i
COc1cccc(CN(C(=O)c2ccco2)C(C(=O)NC2CCCC2)c2cccnc2)c1 (stereo not given) | >57 | i
O=C(c1cccc(F)c1)N1CCN(C(=O)c2nn3cccnc3c2Cl)CC1 | >57 | i
O=C(Cc1ccccc1)n1nc(-c2ccccc2)nc1NCc1ccco1 | / | i
C[C@@]12CC[C@@H]3[C@@H](CC[C@H]4C[C@@H](O)CC[C@]43C)[C@H]1CC[C@@H]2c1cc(C(F)(F)F)n[nH]1 | / | i
CC1(c2ccc(Cl)cc2Cl)OCC(Cn2ccnc2)O1 (stereo not given) | >11 | i
CS(=O)(=O)N1CCC2(CCCN(Cc3cc(C(F)(F)F)cc(C(F)(F)F)c3)C2)CC1 | / | i
Oc1c(CN2CCc3ccccc3C2)cc(Cl)c2cccnc12 | / | i
CCOc1ccc(-n2c(Cc3cc(=O)[nH]c(=O)[nH]3)nnc2SCC(=O)NC2CCCC2)cc1 | / | i
N#Cc1ccc(N2CCN(C(=O)c3cccc(F)c3)CC2)c(F)c1 | / | i
O=C(O)CCc1nc2ccccc2[nH]1 | / | i
CCn1c(CSc2nc3ccccc3s2)nc2ccccc21 | / | i

5 compounds drawn at random from those above, as already listed:
SMILES | PK Bst | TsaE inh
CC1(c2ccc(Cl)cc2Cl)OCC(Cn2ccnc2)O1 (stereo not given) | >11 | i
N#Cc1ccc(N2CCN(C(=O)c3cccc(F)c3)CC2)c(F)c1 | / | i
CCOc1ccc(-n2c(Cc3cc(=O)[nH]c(=O)[nH]3)nnc2SCC(=O)NC2CCCC2)cc1 | / | i
O=C(Cc1ccccc1)n1nc(-c2ccccc2)nc1NCc1ccco1 | / | i
C[C@@]12CC[C@@H]3[C@@H](CC[C@H]4C[C@@H](O)CC[C@]43C)[C@H]1CC[C@@H]2c1cc(C(F)(F)F)n[nH]1 | / | i

Continuation:
SMILES | PK Bst | TsaE inh
COC(=O)c1nnn(-c2nonc2N)c1CN1CCc2ccccc21 | >57 | i
COc1cccc(C2c3c(oc4ccccc4c3=O)C(=O)N2CCCN2CCOCC2)c1 (stereo not given) | / | i
Nc1cc(C2CCCC2)nn1-c1ccccc1 | / | i
CCN(CC)c1nc(Nc2ccccc2)nc(Oc2ccc(=O)[nH]n2)n1 | >57 | i
O=C(c1cc(-c2ccco2)on1)N1CCN(C(c2ccccc2)c2ccccc2)CC1 | >57 | i
Oc1c(C=Nc2cccnc2)sc2ccccc12 | 11* | /
COc1ccccc1CNS(=O)(=O)c1ccc2[nH]cc(C(=O)O)c(=O)c2c1 | >57 | i
CC(O)[C@H](NC(=O)C1(c2ccccc2)CCN(C(=O)OC(C)(C)C)CC1)C(=O)O (stereo not given in full) | >57 | i
CC1CCC(C(=O)NC(C(=O)N2CCC(N3CCCCC3)CC2)C(C)C)CC1 (stereo not given) | >57 | i
CC1CCCCN1CCNc1nc(=S)[nH]c2ccccc12 (stereo not given) | >57 | i
CCN1CCc2c(C#N)c(NCc3ccccc3)nc(N(CC)CC)c2C1 | >26 | /
CC(C)(C)OC(=O)N1CCC(C(=O)N[C@H](Cc2ccccc2)C(=O)O)CC1 | >57 | i
CCCc1ccc(-c2ccc(F)c(N)c2)nc1 | / | i
CC(=O)Nc1ccc(NC(=O)Oc2ccccc2)cc1 | >57 | i
CCn1c(SCC(=O)NCc2ccc(C)cc2)nnc1-c1ccncc1 | >57 | i
O=C(Nc1ccccc1)N1CC[C@@]2(CCCN(C(=O)c3csnn3)C2)C1 | / | i
OCc1nn2c(c1Br)NC(c1ccccc1)CC2C(F)(F)F (stereo not given) | >57 | i
O=C(Cc1cccs1)Nc1nc2c(s1)CCCC2 | >57 | i
COc1ccc(C)cc1S(=O)(=O)N(CC(=O)O)c1ccccc1 | >57 | i
Cc1cc(Br)c(S(=O)(=O)NCCN2CCOCC2)cc1C | / | i
CCOc1ccc2nc(NCCNC(=O)CC)c(C#N)cc2c1 | >57 | i
COC(=O)C1=C(N)Oc2cc(C)n(CC3CCCO3)c(=O)c2C1c1ccccc1OC (stereo not given) | >57 | i
O=[n+]1c2c(n([O-])c3cc(F)c(N4CCCC4)cc31)CCC2 | >57 | i
Cc1nnc2n(C3CCCCC3)c(=O)c3c4c(sc3n12)CCC4 | >57 | i

Records listed so far that bear a hit mark in PK Bst.
SMILES | PK Bst | TsaE inh
Oc1c(C=Nc2cccnc2)sc2ccccc12 | 11* | /

Remaining list, next part:
SMILES | PK Bst | TsaE inh
c1ccc(Cn2ccnc2-c2ccco2)cc1 | >57 | i
CC(C)C(=O)NC(C)C(c1cccs1)N1CCN(c2ccccc2)CC1 (stereo not given) | >57 | i
CC(=O)Nc1cccc(NC(=O)Nc2ccc(C(C)=O)cc2)c1 | i | i
ClC(=Nc1cccc2ccccc12)N(c1ccccc1)c1ccccc1 | / | i
O=S(=O)(NC1CCCCC1)c1ccc(Br)cc1 | / | i
Cc1cc(C)nc(N2CCCC(C(=O)Nc3nc4ccc(S(C)(=O)=O)cc4s3)C2)n1 (stereo not given) | / | i
O=C(c1cccc2c1-c1ccccc1/C2=N/O)N1CCCCC1 | / | i
CCOC(=O)N1CCN(c2ncnc3c2oc2nc(C)c4c(c23)CC(C)(C)OC4)CC1 | >57 | i
COCc1[nH]nc2c1C(c1ccccc1OC)C(C#N)=C(N)O2 (stereo not given) | >26&>57 | i
